# VACV mCherry inh – inhibitors of vaccinia virus infection (mCherry reporter signal) | Potency, µM (highest dose often 36.5 µM), without a hit: top-dose activity change, negative = inhibition, hits mostly inhibitors | Vaccinia virus mCherry reporter infection, fluorescence; about a quarter of the inactives have no number | actives 0.63% (n = 310,000); active = well fitted inhibition curve with a large enough effect; inconclusive = small, poorly fitted or top-dose-only effect; inactive = no such curve, though single readings can be large or run the other way; tested in A549 cells; further: nearly all actives have a fitted effect of over 35% in size; inactives centre near -10
# Vaccinia Venus – vaccinia inhibition (Venus reporter); Vaccinia virus Venus reporter expression, fluorescence; Potency, µM (titrated, usually from 36.5 µM), without a hit: at the highest dose activity change, negative = inhibition, most hits filed as inhibitors; actives 0.46% (n = 330,000); AID 720580; active means well fitted inhibition curve with a large enough effect; inconclusive means small, poorly fitted or top-dose-only effect; inactive means no such curve, though single readings can be large or run the other way; tested in A549 cells; further: nearly all actives have a fitted effect of over 30% in size; inactives centre near -10
# * hit, by the source's call; i = inactive; u = inconclusive; x = not tested or not shown; & = joins results of further samples. On the % scale 0 is the no-effect control and ±100 the full control effect; potency means the concentration at half of the fitted maximal effect.
# Sample of the layout, 2 compounds:
SMILES,VACV mCherry inh,Vaccinia Venus
Cc1cc(C(=O)COC(=O)c2ccncc2)c(C)n1CCc1ccc(F)cc1,1%,-6%
COc1cccc(CNC(=O)c2c(C)oc3ncnc(N4CCOCC4)c23)c1,-9%,-8%

# Results, from the start:
SMILES,VACV mCherry inh,Vaccinia Venus
Cc1cc(C(=O)COC(=O)c2ccncc2)c(C)n1CCc1ccc(F)cc1,1%,-6%
COc1cccc(CNC(=O)c2c(C)oc3ncnc(N4CCOCC4)c23)c1,-9%,-8%
Cc1cc(C)c2nc(N3C(=O)C(O)=C(C(=O)c4ccco4)C3c3ccco3)sc2c1 (stereo not drawn),-13%,5%
CC(C)OC(=O)CSc1nnc(-c2cnccn2)n1C,x,-15%
O=S(=O)(c1ccccc1)C1Cc2ccccc2C1Cl (stereo not drawn),-17%,5%
Nc1nc(N)c2ncc(C(=O)CCc3ccccc3)nc2n1,6%,6%
COc1ccc(C(=O)NCC(=O)N2CCC(Cc3ccccc3)CC2)cc1OC,-6%,-22%
Cc1ccc(C=C2C(=O)c3ccccc3C2=O)s1,2%,7%
CN(C)C1=NCCN1CCCC1CCCCC1,i,-12%
CCOC(=O)C(NC(C)=O)C(OC(C)=O)c1cccc(N(CCO)CCO)c1 (stereo not drawn),x,-7%
CCC(Oc1ccccc1)C(=O)Nc1nnc(C)s1 (stereo not drawn),-14%,-8%
CSc1ccc(-c2nc3c(C)cccn3c2Nc2ccc3c(c2)OCCO3)cc1,-20%,-11%
COc1ccc(CCC(=O)Nc2ccc(S(=O)(=O)NC3=NCCCCC3)cc2)cc1,-13%,8%
Cc1ccc(C(=O)NC2CC3CCCC(C2)N3C(=S)NCc2ccco2)cc1 (stereo not drawn),-6%,-12%
CCOC(=O)N1CCN(C(=O)c2ccc(Cn3c(=S)[nH]c4cc(OCC)c(OCC)cc4c3=O)cc2)CC1,-4%,-18%
COc1ccc(Br)cc1CNC(=O)c1cc(=O)[nH]c2ccc(S(=O)(=O)N3CCCCC3)cc12,-5%,-6%
O=C(c1[nH]c(C(F)(F)F)nc1-c1ccccc1)N1CCOCC1,i,0%
COc1ccc(NC(=O)Cc2c(C(=O)O)[nH]c3ccccc23)cc1OC,-3%,5%
CC(C)c1ccc(NC(=O)COc2ccc(S(=O)(=O)N3CCOCC3)cc2)cc1,-17%,-16%
CCCn1c(=O)[nH]c(=O)c2c1nc(-c1ccc(OC)c(Br)c1)n2CCOC,-7%,1%
CCOC(=O)c1sc2ccccc2c1S(=O)(=O)N1CCN(c2ccccc2)CC1,-5%,-10%
COc1ccc(S(=O)(=O)N2Cc3ccccc3CC2C(=O)Nc2cccc(C)c2)cc1OC (stereo not drawn),2%,5%
COc1ccc(NC(=O)COC(=O)c2ccc(F)cc2F)cc1,-10%,-7%
CC1(C)Cc2nc3sc4c(N(CCO)CCO)ncnc4c3cc2CO1,i,-12%
Nc1c2c(=O)[nH]c(O)cc2nn1-c1ccccc1,-6%,8%
O=C(Nc1ccc(S(=O)(=O)NCc2ccccc2)cc1)Nc1ccc2c(c1)OCO2,-15%,-17%
C=CCn1c(SCC(=O)c2ccc(O)c(O)c2)nnc1-c1ccc(OC)cc1,-7%,-1%
Cn1cccc1/C=N/NC(N)=S,-24%,u
Oc1c(C(c2ccco2)N2CCOCC2)sc2ncnn12 (stereo not drawn),i,-8%
Cc1onc(-c2ccccc2)c1C(=O)Nc1nncs1,-21%,-12%
COc1ccc(CCNS(=O)(=O)c2ccc(F)c(C(=O)Nc3ccc(Cl)cc3)c2)cc1OC,-28%,u
CCNC(=O)c1ccc(C2SCC(=O)N2CCc2ccccc2)cc1 (stereo not drawn),-3%,-6%
Cc1ccsc1C(=O)N1CCN(c2ncc(C(F)(F)F)cc2Cl)CC1,-20%,-15%
CN(C)c1ccc(C(CNS(=O)(=O)c2ccc(Br)cc2)N2CCOCC2)cc1 (stereo not drawn),-8%,-11%
C[C@H](c1ccccc1)N1C[C@@H](COCc2ccccc2)Oc2cc(N3CCC[C@@H]3CO)ccc2S1(=O)=O,-21%,-23%
FC(F)(F)c1nnc2ccc(N3CCN(c4ccccc4)CC3)nn12,-14%,-10%

# Looked up above:
# Cc1onc(-c2ccccc2)c1C(=O)Nc1nncs1 in VACV mCherry inh → -21%
# Nc1c2c(=O)[nH]c(O)cc2nn1-c1ccccc1 in VACV mCherry inh → -6%
# FC(F)(F)c1nnc2ccc(N3CCN(c4ccccc4)CC3)nn12 in VACV mCherry inh → -14%
# C=CCn1c(SCC(=O)c2ccc(O)c(O)c2)nnc1-c1ccc(OC)cc1 in Vaccinia Venus → -1%

# The results go on:
SMILES,VACV mCherry inh,Vaccinia Venus
CCn1cc(/C=C(\NC(=O)c2ccc(C)cc2)C(=O)NCCCn2ccnc2)c2ccccc21,5%,2%
CN(c1ccccc1)C1CCCCC1NS(=O)(=O)c1ccc(Cl)cc1 (stereo not drawn),-24%,u
CC(C)(C)N(Cc1ccccc1)C(=O)COC(=O)[C@@H]1CCCN1C(=O)c1cccs1,-22%,-23%
Cc1ccc(CN2C3CCCC2CC(NC(=O)c2ccc(F)cc2)C3)cc1 (stereo not drawn),-10%,-28%
CCOc1cc(C)c(Cl)cc1S(=O)(=O)NCCOC,-16%,3%
Cc1nn(C)c(Cl)c1CN1CCCC(CO)(Cc2cccc(Cl)c2)C1 (stereo not drawn),-6%,-9%
CC(NC(=O)Nc1ccccc1)C(c1ccccc1)N1CCOCC1 (stereo not drawn),-9%,-7%
COc1cc(NC(=O)CN2CCN(c3ccc(F)cc3)CC2)cc(OC)c1,-8%,-8%
O=C(NC1CCS(=O)(=O)C1)C1C2CC3CC(C2)CC1C3 (stereo not drawn),-2%,-10%
CCCN(CC(=O)Nc1ccccc1C)C(=O)COC(=O)CSc1ccc([N+](=O)[O-])cc1,-20%,-19%
O=C(NCCc1nc2ccc(Cl)cc2[nH]1)C1CCC(=O)N(Cc2cccc(F)c2)C1 (stereo not drawn),i,-5%
Oc1ccc(NCc2ccccc2OCc2ccccc2F)cc1,-2%,7%&-28%
COC(=O)C1=C(N)OC2=C(C(=O)CC(C)(C)C2)C1c1ccccc1OCC#N (stereo not drawn),i,-4%
CN(C)CC(=O)N1CCc2ccccc2C1,i,-11%
CCOC(=O)c1c(NC(=O)C(=O)N/N=C/c2ccc(O)c(OC)c2)sc2c1CCCCC2,-25%,-23%
O=C(CCCCCN1C(=O)CCC1=O)Nc1ccc(Br)cc1F,x,-8%
O=C1C2CCCN2C(=O)N1CCCCN1CCN(c2ccc(F)cc2)CC1 (stereo not drawn),i,-12%
COc1cc2c(N3CCOCC3)cc(O)c(CC(=O)Nc3ccccc3)c2cc1OC,18%,14%
CCN1CCN(C(c2ccccc2)c2sc3nc(C)nn3c2O)CC1 (stereo not drawn),i,-9%
O=C(O)c1c(Cl)c(Cl)c(Cl)c(Cl)c1C(=O)N1CCOCC1,x,-5%
CNC(=O)c1cc(C(=O)c2ccccc2C(F)(F)F)c[nH]1,2%,1%
C[n+]1c2n(c3ccccc31)N=C(c1ccccc1)CS2,-6%&-7%,-19%&-25%
COC(=O)CNc1ccc2c(c1)OCO2,x,-14%
COC(=O)Nc1ccc2c(c1)N(C(=O)CCN1CCOCC1)c1ccccc1S2,u,-21%
Cc1ccc(S(C)(=O)=O)cc1C(=O)N1CC(C(N)=O)Oc2ccccc21 (stereo not drawn),0%,-5%
O=S1(=O)CC(N2CCN(Cc3ccccc3F)CC2)CN1Cc1cn(Cc2ccccc2)nn1 (stereo not drawn),28%,-1%
O=C(COC(=O)CCC(=O)c1ccc(Cl)cc1)NCc1ccco1,i,-11%
CCOC(=O)[C@@H]1[C@H]2COc3ccccc3[C@@H]2N2C(=O)N(c3cccc(Cl)c3)C(=O)[C@]12C,-13%,-25%
CC(C)OC(=O)c1cc2c(=O)[nH]c(C(Cl)(Cl)Cl)nc2o1,-1%,-11%
COc1ccc(N2CCN(C(=S)NC(=O)c3cccs3)CC2)c([N+](=O)[O-])c1,u,-27%
CC(OC(=O)c1ccccc1NS(=O)(=O)c1cccc(C(F)(F)F)c1)C(=O)N(C)Cc1ccccc1 (stereo not drawn),-8%,-15%
Cc1cccc(C)c1C(O)c1ncc(-c2cccc(C(F)(F)F)c2)[nH]1 (stereo not drawn),u,-12%
O=C(CSc1ncnc2c1cnn2-c1ccccc1)NC1CCS(=O)(=O)C1 (stereo not drawn),-10%,-13%
CCOC(=O)c1ccc(NC(=O)c2cc(F)c(F)cc2Cl)cc1,-8%,-3%
COc1cccc(CNC(=O)c2ccc3c(c2)nc2n3CCOC2)c1,-6%,-4%
Cc1cccc(-c2nc(CS(=O)CC(=O)NCc3cccs3)c(C)o2)c1 (stereo not drawn),-28%,-11%
CC1=CC2=NC(=O)/C(=C\c3ccc(-c4cccc(Cl)c4)o3)C(=N)N2O1,-20%,-8%
COc1ccccc1C(=O)NC(=O)COC(=O)CNC(=O)c1ccc(Cl)cc1Cl,-25%,-10%
COc1ccc(-c2cn3nc(N4CCCC(C(=O)NCc5ccccc5OC)C4)sc3n2)cc1 (stereo not drawn),-17%,-20%
CN(C)c1cccc2c(S(=O)(=O)NCc3ccc(S(N)(=O)=O)cc3)cccc12,-1%,-13%
CCn1c(CNC(=O)c2ccccc2Br)nnc1SCC(=O)NC1=NCCS1,11%,7%
CN(c1ccc(O)cc1)S(=O)(=O)c1ccc2ccccc2c1,-24%,-17%
CCN(CC(=O)NC1CCS(=O)(=O)C1)S(=O)(=O)c1c(C)c(C)cc(C)c1C (stereo not drawn),-28%,-28%
Cc1ccc2nc(-c3ccc(C)c(NC(=O)CSc4ccc(Cl)cc4)c3)oc2c1,-9%,-14%
CCCCCCn1c(=O)n2n(c1=O)C[C@]1(OC(=O)NC3CC3)CN(S(=O)(=O)c3ccc(C)cc3)C[C@]1(O)C2,i,-25%
CCN(CC)C(=O)CN(c1cc2c(cc1OC)oc1ccccc12)S(=O)(=O)c1ccc(C)cc1,x,-9%
COc1ccc(C(=O)Nc2nncs2)cc1S(=O)(=O)N1CCOCC1,-1%,14%
Cc1nnc(SCc2cc(=O)n3c(C)cccc3n2)s1,-4%,-10%
CCN(CC)C(=O)C1=C(C)N(CCCN2CCCC2=O)C(=O)C(CC(=O)NCC2CCCCC2)C1 (stereo not drawn),i,-6%
Cc1sc(NC(=O)c2c(F)cccc2F)nc1-c1ccccc1,u,-22%
Nc1cc(=O)[nH]c(SCC(=O)Nc2cccnc2Cl)n1,-11%,-8%
CC(=O)OCn1nnc2ccccc2c1=O,x,-1%
CCOc1ccc(C=NC23CN4CN(CN(C4)C2)C3)cc1,-8%,-21%
CCN(CC)C1Oc2cc3c(cc2C(c2cccc(OC)c2O)C1C)OCO3 (stereo not drawn),u,u
COc1cc(/C=N\NC(C)=O)ccc1OC/C=C/c1ccccc1,u,-9%
COc1ccc(S(=O)(=O)N2CCN=C2SCc2cccc(C)c2)cc1,0%,-14%
COC(=O)C1C2c3ccccc3C(c3ccccc32)C1C(=O)OC (stereo not drawn),i,-8%
CC1(C)Cc2c(cnn2-c2ccccc2)C(NC(=O)CCCn2cncn2)C1 (stereo not drawn),-12%,-5%
O=S(N1CCCCC1)C12CC3CC(CC(C3)C1)C2 (stereo not drawn),-3%,-4%
Cc1cccc(C)c1NC(=O)CN(C)C(=O)c1ccc(NS(=O)(=O)c2ccc3[nH]c(=O)[nH]c3c2)cc1,-14%,1%

# Laid out differently: results already given
# Below each compound: VACV mCherry inh | Vaccinia Venus
CCOc1ccc(C=NC23CN4CN(CN(C4)C2)C3)cc1
→ -8% | -21%
CCN(CC)C1Oc2cc3c(cc2C(c2cccc(OC)c2O)C1C)OCO3 (stereo not drawn)
→ u | u
COc1cc(/C=N\NC(C)=O)ccc1OC/C=C/c1ccccc1
→ u | -9%
COc1ccc(S(=O)(=O)N2CCN=C2SCc2cccc(C)c2)cc1
→ 0% | -14%

# Carrying on:
SMILES,VACV mCherry inh,Vaccinia Venus
CC(=O)c1cc(Cc2csc(C(C)=O)c2)cs1,-9%,2%
CCOC(=O)C1CCN(C(=O)C(C)Sc2nnc3ccccn23)CC1 (stereo not drawn),-9%,1%
CSC1=C(C#N)C(=O)NC(c2ccccc2O)S1 (stereo not drawn),-23%,3%
CS(=O)(=O)Nc1ccc(C2=NN(C(=O)c3ccco3)C(c3ccc(F)cc3)C2)cc1 (stereo not drawn),i,-27%
O=C(CNC(=O)c1ccccc1F)OCCCOC(=O)CNC(=O)c1ccccc1F,-5%,-2%
CCOC(=O)[C@]12CCCC=C1N(Cc1ccc(Cl)cc1Cl)C(=O)[C@H](CC(=O)NCCCN1CCCC1=O)C2,-17%,-17%

# Three of these compounds, set out differently:
smiles | VACV mCherry inh | Vaccinia Venus
CC(=O)c1cc(Cc2csc(C(C)=O)c2)cs1 | -9% | 2%
CCOC(=O)C1CCN(C(=O)C(C)Sc2nnc3ccccn23)CC1 (stereo not drawn) | -9% | 1%
CSC1=C(C#N)C(=O)NC(c2ccccc2O)S1 (stereo not drawn) | -23% | 3%

# Compound activity (PubChem BioAssay)
